Screening results: PubChem, several laboratories
Vif A3G: HIV-1 Vif–A3G interaction blockers – biochemical, TR-FRET, GST-Vif 1-94, biotin-A3G peptide, dose response retest, primary screen (AID 1117319); TR-FRET GST-Vif / biotin-A3G peptide binding; higher % means a stronger effect; test concentration not given here; strong numbers were not always called active; one-dose inhibition, %; IC50 in µM for titrated hits; 260,000 tested, 0.57% active;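 active = above the screen mean plus three standard deviations and confirmed in dose response; inconclusive = results disagree or hit not tested in dose response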;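 also: Vif residues 1-94 fused to GST binding biotinylated APOBEC3G peptide 110-148; 0% = full assay without inhibitor and 100% = GST in place of GST-Vif; retest series ran down from 100 µM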
Beta2AR agonist: agonists of human beta-2 adrenergic receptor inducing internalization; P07550; Am2.2-beta2AR cells, FAP receptor internalization, flow cytometry; reference of the scale not given here; response, % (concentration not given with the values); 340,000 tested, 0.43% active;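 active = response above a set limit, near 3 SD of response in nonfluorescent compounds, cut at about 42% in these data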;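 also: stock transfer was 100 nL into about 11 µL; a reference agonist was the positive control; negative values mostly stem from fluorescent compounds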
Target sequence (P07550 whole entry, looked up): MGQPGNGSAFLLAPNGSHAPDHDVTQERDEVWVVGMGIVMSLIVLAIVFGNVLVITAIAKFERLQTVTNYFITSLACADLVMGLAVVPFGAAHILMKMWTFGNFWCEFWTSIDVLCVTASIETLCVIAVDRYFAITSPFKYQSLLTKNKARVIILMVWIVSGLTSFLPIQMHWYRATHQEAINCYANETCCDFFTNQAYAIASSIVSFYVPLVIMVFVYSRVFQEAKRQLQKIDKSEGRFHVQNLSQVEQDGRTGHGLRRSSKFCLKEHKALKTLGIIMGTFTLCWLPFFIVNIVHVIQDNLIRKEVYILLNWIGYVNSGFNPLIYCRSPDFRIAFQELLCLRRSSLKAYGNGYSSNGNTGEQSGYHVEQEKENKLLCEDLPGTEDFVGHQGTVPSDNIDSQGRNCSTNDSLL
ALR inh: inhibitors of human sulfhydryl oxidase ALR. purified ALR, DTT oxidation, H2O2 HRP-luminol luminescence. inhibition, % (test concentration not listed). 290,000 tested, 3.8% active. AID 485317;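 active = mean and each replicate at 75% or more; inconclusive = only one of the two met; inactive = neither met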;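 also: stock transfer was 7.5 nL into about 7.5 µL; 0% = neutral wells and 100% = wells with inactivated enzyme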
LANA-H2B inh: blocks KSHV LANA binding to histone H2A/H2B | 320,000 tested, 0.6% active | cell-free LANA-H2A/H2B peptide, fluorescence polarization | AID 2629 | Q9QR71 | inhibition, % (test concentration not listed); in the data active = inhibition mostly above about 10%, no sharp cut-off; inactive = mostly below about 6.7%;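 also: stock transfer was 7.5 nL into about 10 µL; 0% = median of vehicle wells and 100% = median of positive control wells; one replicate is shown; the record names a cut of 25% in any replicate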
RanGTP-Imp inh: inhibitors of RanGTP-importin-beta interaction, primary screen, biochemical, FRET, CFP-Ran, YFP-importin-beta, homogeneous; 300,000 tested, 1.1% active; cell-free CFP-Ran/YFP-importin-beta FRET ratio; inhibition, % (test concentration not listed);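 active = most replicates above 15%; inconclusive = exactly half above 15%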;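 also: 0% = DMSO wells and 100% = Ran loaded with GDP instead of GTP; wells of about 40 µL received 100 nL stock; the first replicate is given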
HNF4A DNA FP: change in binding of human HNF4 alpha to DNA; HNF4a-FITC DNA binding, fluorescence polarization, 1 h; 360,000 tested, 0.3% active; AID 1224865; activity change, % at 10 µM; in the data active = activity change above about 30%, passing the limit was not always enough;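 also: controls were the assay level and a saturating level of protein; the project sought stronger binding though the title names inhibitors; some compounds called inactive have numbers as strong as hits; positive values seem to mean higher polarization but the record does not say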
Target sequence (P41235 whole entry, looked up): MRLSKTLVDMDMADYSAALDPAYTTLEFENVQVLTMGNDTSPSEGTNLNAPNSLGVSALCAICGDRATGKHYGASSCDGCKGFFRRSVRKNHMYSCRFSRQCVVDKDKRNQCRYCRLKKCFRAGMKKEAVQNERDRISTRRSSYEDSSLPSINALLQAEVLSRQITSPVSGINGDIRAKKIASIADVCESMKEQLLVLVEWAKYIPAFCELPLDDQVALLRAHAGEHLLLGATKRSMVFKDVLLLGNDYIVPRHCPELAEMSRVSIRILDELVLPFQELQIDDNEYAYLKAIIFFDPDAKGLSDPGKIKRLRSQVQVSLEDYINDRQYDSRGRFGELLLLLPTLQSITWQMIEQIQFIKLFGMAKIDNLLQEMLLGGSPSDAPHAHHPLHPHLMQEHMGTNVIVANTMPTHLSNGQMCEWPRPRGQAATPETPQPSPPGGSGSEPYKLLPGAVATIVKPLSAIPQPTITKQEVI
Calb FLC: affects C. albicans growth with fluconazole | growth inhibition, % (test concentration not listed) | C. albicans CaCi-2 (fluconazole-resistant clinical isolate) + fluconazole, Alamar Blue growth, 48 h | 300,000 tested, 0.57% active | AID 1979;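 active = most replicates above 75%; inconclusive = exactly half above 75%; inactive = most below 75%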;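 also: all wells also contain fluconazole at 8 µg/ml as a sub-toxic cotreatment; 0% = median of DMSO wells and 100% = median of geldanamycin control wells; wells of about 8 µL received 7.5 nL stock; the first replicate is given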
* hit, by the source's call; ? = inconclusive; / = not tested or not shown; & = joins results of further samples. Not a hit list (roughly 6.3% active in at least one column).

SMILES	Vif A3G	Beta2AR agonist	ALR inh	LANA-H2B inh	RanGTP-Imp inh	HNF4A DNA FP	Calb FLC
C=CCCC(=O)Nc1ccc(Br)cn1	7%	-7	-15	2.6	0.7	0.8	-5
COc1ccc(S(=O)(=O)N2CCCC2)cc1NC(=O)c1ccccc1	-4%	-8	1	0.8	3.9	-0.1	5
N#CC1=C(N)OC2=C(C(=O)CCC2)C1c1ccc(OC(=O)N2CCOCC2)cc1 (configuration not stated)	7%	8	20	3.1	5.7	-1.6	-13
CC(=O)c1cccc(S(=O)(=O)N(C)C2CCN(C)CC2)c1	-1%	-2	-7	-1.5	-2.3	1.4	-1
O=C(COCc1cc(-c2ccc3c(c2)OCO3)on1)N1CCN(c2cccc(Cl)c2)CC1	/	0	-13	3.6	2.3	4.2	1
COC(=O)N/N=C/c1ccc(Oc2ccccc2)cc1	/	-8	-3	-2.1	-1.1	0.0	-17
NC(=O)CC(NC(=O)c1ccc(Cl)cc1)C(=O)NCCc1ccc(S(N)(=O)=O)cc1 (configuration not stated)	26%	-2	-4	1.3	-4.9	8.7	-2
Cc1ccc(C)c(CNC(=O)Nc2ccccc2)c1	/	11	/	-2.4	4.6	-0.4	-21
Cc1cc(C)cc(C(=O)NCCC(=O)N2CCC3(CC2)NCCc2[nH]cnc23)c1	1%	4	-6	3.8	2.2	2.1	-23
Cc1cc(=O)c2cc(Br)ccc2n1CC(=O)NCc1ccccc1	/	-7	-5	-2.4	-1.8	1.5	11
COC(=O)C1=CN(c2cc(C)cc(C)c2)C=C(C(=O)OC)C1c1ccc(OC)c(O)c1	10%	10	-4	-0.4	-2.0	0.3	8
Cc1ccccc1C(=O)N/N=C/c1ccc(OCC(=O)N2CCCCC2)cc1	-11%	-3	-8	-4.2	1.5	0.2	?
COc1ccc(-c2c(C)nn3c(N4CCN(Cc5ccccc5)CC4)cc(C)nc23)cc1OC	14%	7	4	-8.1	?	0.9	3
COc1ccc(OC)c(N2C(=O)CC(NNC(=O)c3ccc4c(c3)OCO4)C2=O)c1 (configuration not stated)	13%	2	-10	5.6	/	3.2	/
CCOC(=O)C1CCN(Cc2ccc(Cl)c(Cl)c2)CC1	5%	2	-10	-5.0	3.2	-0.1	-6
COc1ccc(C(=O)OC2CCCCC2CN(C)C)cc1 (configuration not stated)	-9%	1	-4	0.6	1.4	1.0	-5
O=C(COC(=O)c1ccc(N2CCCC2=O)cc1)Nc1ccccc1	-11%	-3	-2	-2.1	/	-0.4	/
CN(CC(=O)NCc1ccc2c(c1)OCO2)S(=O)(=O)c1ccc(Cl)cc1	/	-4	-2	-1.1	/	5.0	/
Cc1ccccc1C(=O)Nc1cccc(NC(=S)NC(=O)c2cccs2)c1	-9%	1	-7	1.9	-2.6	-0.6	28
Cc1ccc(S(=O)(=O)N2CCOCC2)cc1C(=O)NCc1ccco1	-1%	3	3	-4.9	3.6	-2.1	0

Of the compounds above, these contain bromine.
SMILES	Vif A3G	Beta2AR agonist	ALR inh	LANA-H2B inh	RanGTP-Imp inh	HNF4A DNA FP	Calb FLC
C=CCCC(=O)Nc1ccc(Br)cn1	7%	-7	-15	2.6	0.7	0.8	-5
Cc1cc(=O)c2cc(Br)ccc2n1CC(=O)NCc1ccccc1	/	-7	-5	-2.4	-1.8	1.5	11

Other results follow.
SMILES	Vif A3G	Beta2AR agonist	ALR inh	LANA-H2B inh	RanGTP-Imp inh	HNF4A DNA FP	Calb FLC
CC(=O)Cc1nsc(NC(=O)c2ccc(-c3cc(C(F)(F)F)ccc3Cl)o2)n1	-1%&1%	-3	-1	5.9	1.1	-5.7	28
CCCCc1cc(=O)oc2cc(OCc3nn[nH]n3)ccc12	0%	-6	2	1.5	1.9	-1.9	2
CC(=O)c1ccc(S(=O)(=O)Nc2ccc(N3CCOCC3)cc2)cc1	1%	-16	34	0.5	-1.3	0.1	0
O=C(NC1CCS(=O)(=O)C1)c1cccc(Br)c1 (configuration not stated)	-11%	13	-2	-3.4	-1.1	-0.6	3
Cc1cc(Cl)c(S(=O)(=O)NC2CCCCC2)cc1OCC(=O)Nc1nncs1	7%	4	/	-1.9	5.0	-4.0	-3
S=C(NCCCN1CCOCC1)Nc1ccc(N2CCOCC2)cc1	-3%	-5	/	-3.1	-3.9	-0.9	1
Cc1ccc(/C=N/NC(=O)c2ccc(OC3CCCC3)cc2)o1	-1%	-3	/	/	-6.4	2.3	2
CCOC(=O)c1ccccc1NC(=O)C1CSC2(C)CCC(=O)N12 (configuration not stated)	29%	0	-9	-1.2	2.4	0.9	5
Fc1ccccc1CNC(=S)NCc1ccc(Cl)cc1	/	1	-17	7.2	1.0	0.9	-1
COc1ccc(-c2nc(Cc3ccc(Cl)cc3)no2)cc1OC	-1%	10	2	-4.6	-1.3	2.0	-2
Cc1ccc(N2C(=O)CC(Sc3ccccc3C(=O)O)C2=O)cc1C (configuration not stated)	-4%	2	5	0.0	-2.1	5.1	3
O=C(NCc1ccncc1)C1CCCN(S(=O)(=O)Cc2ccccc2)C1 (configuration not stated)	?	3	4	2.9	0.5	-5.9	-4
COc1ccc(NC(=S)N(C)CC2COc3ccccc3O2)cc1 (configuration not stated)	4%	1	-6	-1.3	-2.9	1.3	-6
Cc1n[nH]c(C)c1CCOc1ccc(C(C)C)cc1	-3%	2	0	-2.6	-1.9	-1.2	32
COc1ccc(Nc2nc(C)cc(C)c2C#N)c(OC)c1	/	-2	3	-2.5	-1.4	1.6	-2
CCOC(=O)c1nc(C)nc(Sc2n[nH]c(-c3cc(Cl)cc(Cl)c3)n2)c1C	-3%	0	61	-3.5	2.2	0.9	-3
O=[N+]([O-])c1ccc(/C=N/n2c(C3CCCCC3)n[nH]c2=S)cc1	-12%	6	-1	0.2	-1.3	-2.9	-3
COc1ccc(CCn2c(NN=C3CCCCC3)nc3c2c(=O)[nH]c(=O)n3C)cc1	?	-8	-28	-1.7	-0.3	2.2	-3
Cc1ccc(N(C(=O)c2csnn2)C(C(=O)NC(C)(C)C)c2cccs2)cc1 (configuration not stated)	15%	0	-2	1.5	?	2.2	14
COCCN(C(=O)c1ccccc1F)c1c(N)n(Cc2ccccc2)c(=O)[nH]c1=O	/	-6	-3	-1.6	4.7	3.9	8

Next part (5 carried over from the part before).
SMILES	Vif A3G	Beta2AR agonist	ALR inh	LANA-H2B inh	RanGTP-Imp inh	HNF4A DNA FP	Calb FLC
CCOC(=O)c1nc(C)nc(Sc2n[nH]c(-c3cc(Cl)cc(Cl)c3)n2)c1C	-3%	0	61	-3.5	2.2	0.9	-3
O=[N+]([O-])c1ccc(/C=N/n2c(C3CCCCC3)n[nH]c2=S)cc1	-12%	6	-1	0.2	-1.3	-2.9	-3
COc1ccc(CCn2c(NN=C3CCCCC3)nc3c2c(=O)[nH]c(=O)n3C)cc1	?	-8	-28	-1.7	-0.3	2.2	-3
Cc1ccc(N(C(=O)c2csnn2)C(C(=O)NC(C)(C)C)c2cccs2)cc1 (configuration not stated)	15%	0	-2	1.5	?	2.2	14
COCCN(C(=O)c1ccccc1F)c1c(N)n(Cc2ccccc2)c(=O)[nH]c1=O	/	-6	-3	-1.6	4.7	3.9	8
O=c1[nH]c2cc(Cl)c([N+](=O)[O-])nc2[nH]1	11%	-1	-31	-4.3	1.4	-0.6	-4
NS(=O)(=O)c1cc(C(=O)OCC(=O)N2CCOCC2)ccc1Cl	/	5	1	2.6	0.8	1.3	5
CC1Oc2ccccc2N(CC(=O)Nc2ccc3c(c2)OCCO3)C1=O (configuration not stated)	-4%	-6	-12	-1.6	-8.0	-2.2	-7
c1ccc(-n2nnnc2-n2cnc3ccccc32)cc1	6%	6	0	6.1	-3.5	3.7	-6
O=C(CSc1n[nH]c(-c2ccc(Cl)cc2Cl)n1)Nc1ccccn1	-4%	-2	?	-1.5	1.4	-0.1	0
O=C(CSc1nc(O)cc(=O)n1-c1ccccc1)Nc1ccccn1	13%	-14	9	5.4	2.9	0.7	-5
Cc1cc(C(C)(C)C)cc(C)c1COC(=O)CN1C(=O)NC2(CCCC2)C1=O	8%	-4	-2	/	/	7.6	/
COc1ccc(C2CC(c3ccccc3)n3nc(NC(=O)c4cccs4)nc3N2)cc1 (configuration not stated)	>100µM*	8	/	-4.9	?	-2.4	16
NC(=O)NC(=O)C(c1ccccc1)N1CCN(S(=O)(=O)c2ccc(Br)s2)CC1 (configuration not stated)	-1%	9	-3	-0.3	/	0.6	/
CCCNC(=O)COc1nc2ccccc2nc1N1CCOCC1	2%	5	0	0.8	-0.8	-0.3	0
Cn1c(=O)c2c(nc(N3CCCCCC3)n2CC(=O)c2ccc(Br)cc2)n(C)c1=O	0%	-9	3	0.6	-3.7	-4.4	-1
COc1ccc(NC(=O)c2sc(NC(=O)COc3ccccc3)nc2C)cc1	-6%	-1	2	0.3	-3.1	1.1	7
CC(C)(C)c1cc(C(=O)NCc2ccccc2)ccn1	1%	-9	-10	6.1	1.2	-3.6	0
Cc1nnnn1-c1cccc(C(=O)O)c1	0%	-2	-7	-0.3	4.2	3.3	-10
O=C(Nc1nnc(C(F)(F)F)s1)c1ccc(N2C(=O)C3C4C=CC(C4)C3C2=O)cc1 (configuration not stated)	0%	1	31	-8.0	?	0.2	-6
COc1ccccc1NC(=O)C1=C(C)NC(SCC(=O)Nc2ccc(C(=O)O)cc2)=C(C#N)C1c1cccs1 (configuration not stated)	7%	-7	66	-4.7	-1.7	4.0	10
O=C(c1cc(S(=O)(=O)N2CCC3(CC2)OCCO3)ccc1F)N1CCCCC1	-4%	-5	-3	-6.0	-1.8	-0.6	7
CCSc1nc2ccccc2n1CCC(=O)O	-5%	5	-3	-2.6	7.2	1.6	-3
NS(=O)(=O)c1cccc(NC(=O)Cc2ccc(Cl)c(Cl)c2)c1	-7%	-3	40	1.1	-1.4	3.6	-27
CCOC(=O)N1CCN(C(=O)CCc2c(C)nc3c(c(C)nn3-c3ccc(C)c(C)c3)c2C)CC1	2%&-14%	-6	-2	-0.7	5.5	2.0	23
Cc1c(Cl)cccc1NC(=O)CCC(=O)NNC(=O)c1ccccc1Cl	26%	-1	0	3.9	5.1	-3.0	31
O/N=C(/c1ccc(F)cc1)C1CC1c1c(F)cccc1Cl (configuration not stated)	/	-21	-8	1.0	-1.5	1.1	-27
COc1ccc(NC(=O)C(C/C=C(/C)Cl)C(C)=O)cc1 (configuration not stated)	/	-9	1	6.5	1.2	-0.7	-1
C=C(C)CSCc1nc2ccccc2[nH]1	19%	-3	-44	2.0	0.0	0.8	2
CC(O)CN=c1cc(-c2ccccc2)oc2ccc(Cl)cc12 (configuration not stated)	3%	-5	6	-5.3	-4.5	1.6	-10
CCOc1ccc(C(=O)NCC(=O)OCC(=O)Nc2ccccc2OC)cc1	1%	0	-2	5.3	-0.7	1.5	-3
NC(=O)CC(NC(=O)Cc1cccc2ccccc12)c1ccc(NCC2CC2)c([N+](=O)[O-])c1 (configuration not stated)	1%	-4	-4	-0.3	2.7	16	-8
COC(=O)c1cnn(-c2nc(-c3ccccc3)cs2)c1N	-3%	5	-2	-1.3	?	-0.4	?
CCc1cccc(C)c1NC(=O)CN(C)Cc1ccccc1F	-3%	4	-6	-2.8	-1.6	-0.5	-14
Cc1ccnc(NC(=O)c2ccco2)n1	-12%	6	2	5.0	-1.6	0.3	5
CC(C)Cn1c(SCC(=O)N2CCc3ccccc3C2)nc(O)cc1=O	/	0	1	-1.2	/	-0.5	/
